TsaE inh – inhibitors of E. coli YjeE (TsaE); Potency, µM; purified YjeE, fluorescence polarisation of a bound ADP probe; 0.05% of 71,000 active; P0AF67; active = well fitted falling curve; inconclusive = weaker or top-dose-only fall, or a rising curve; inactive = flat or poorly fitted curve;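 further: top concentration of the series not given in the record; excess ADP was the control for the full effect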
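Fluorescence polarization of a BODIPY Texas Red–ADP probe (2 uM) bound to purified YjeE (10 uM) was read after 15 min room-temperature incubation with compounds. Loss of polarization marks inhibitors; ADP serves as titrated control.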
PK Bst – alters activity of Bacillus stearothermophilus pyruvate kinase; partly purified Bacillus stearothermophilus pyruvate kinase, luminescence ATP production; ribose 5-phosphate activator present at AC10; Potency, µM; 1.2% of 51,000 active; AID 361; in the data active means potency below about 11 µM; inconclusive means mostly about 12 µM to 25 µM; inactive means weaker than that;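 the screen sought inhibitors and activators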;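 further: potency means the concentration at half of the fitted maximal effect; scaled between full activation by ribose 5 phosphate and full inhibition by luteolin; about four in five hits inhibit and the cells do not say which; series up to 57 µM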
* hit, by the source's call; i = inactive; ? = inconclusive; · = not tested or not shown. Some of the compounds tested, so the mix of outcomes need not match the whole.

SMILES | TsaE inh | PK Bst
Cc1ccc(NC(=O)N(CCCN2CCOCC2)Cc2cc3cc4c(cc3[nH]c2=O)OCO4)cc1 | i | ·
COc1ccc(-c2nnc(NC(=O)c3ccc(S(=O)(=O)N4CCc5ccccc5C4)cc3)o2)cc1 | i | >57
Cc1ccc(-n2c(SCC(=O)Nc3cc(C)on3)nc3c(c2=O)SC(C)C3)cc1 (centres undefined) | i | ·
CCCC(CCC(=O)OC)(C(=O)OCC)c1csc(N)n1 (centres undefined) | i | >57
CCOC(=O)CSc1nnc(CNc2ccc(F)cc2)o1 | i | >57
Nc1nonc1C(=O)NCCNCc1cc(Br)ccc1OCc1ccccc1F | i | >57
COc1cc(Cn2ccnc2)c(OC)cc1Cn1ccnc1 | · | >26
Nc1c(Sc2ccccc2)c(=O)[nH]c(=O)n1Cc1ccccc1 | i | >57
CCOC(=O)c1ccccc1NC(=O)Cn1cnc2c(cnn2-c2ccccc2)c1=O | i | >57
CCC(NC(=O)c1ccccc1NC(=O)c1ccco1)C(=O)O (centres undefined) | i | ·
CC(=O)c1cccc([N+](=O)[O-])c1 | i | ·
COC(=O)c1ccc2c(=O)n(Cc3ccco3)c(SCC(=O)Nc3ccc(C)c(Cl)c3)nc2c1 | i | >57
COC(=O)C1=CN(C2CC2)C=C(C(=O)OC)C1c1ccccc1OC | i | >57
CCOC(=O)Cc1csc(NC(=O)CSc2nnc(-c3ccc(C)cc3)o2)n1 | i | >57
COCC(=O)N1CCC2(CCN(Cc3ccccc3)CC2)CC1 | i | ·
O=C(O)c1ccc(N2CCCC2=O)cc1 | i | >57
Cn1c(=O)oc2cc(S(=O)(=O)Nc3cccc4c3CCCC4)ccc21 | i | ?
Cc1cccc(N(CC(=O)NC2CCCCC2)C(=O)CCC(=O)Nc2ccccn2)c1 | i | >57
Cc1nc2ccccc2c(=O)n1NC(=O)c1c(O)c2c(n(CC(C)C)c1=O)CCCC2 | i | >57
CC(OC(=O)CCc1nc2ccccc2c(=O)[nH]1)C(=O)NCc1ccc2c(c1)OCO2 (centres undefined) | i | >57
Cc1cccc(S(=O)(=O)Nc2nc3ccccc3nc2NCc2ccco2)c1 | i | >57
CC1=C(C(=O)OC2CCCCC2)C(c2ccc(C)o2)C2=C(CCCC2=O)N1 (centres undefined) | i | ·
O=C(CCc1ccccc1)Nc1ncn[nH]1 | i | >57
O=C(NCc1ccccn1)c1ccc(NC(=O)c2ccco2)cc1 | i | >57
COc1ccc(S(=O)(=O)N2CCN(Cc3ccccc3)CC2)cc1 | i | >57
Further structures follow.
SMILES | TsaE inh | PK Bst
CCN(CC)CCNCc1ccc(-c2ccc(Cl)cc2)o1 | i | >57
Cc1cc(NC(=O)c2ccc(S(=O)(=O)N3CCCC3)cc2)nc2c1c(=O)oc1ccccc12 | i | >57
Cc1cccc(CSC2=NCCN2C(=O)c2ccco2)c1 | i | ·
O=[N+]([O-])c1ccc(Nc2nc3ccccc3s2)cc1 | i | ·
CCc1cc2cc(C(=O)N3CCN(Cc4ccccc4)CC3)sc2s1 | i | ·
O=C(O)CCCCC(=O)O | i | ·
COc1ccc(N(Cc2ccco2)C(=O)c2ccccc2F)cc1OC | i | >57
Cc1ccc(C(=O)NCc2occc2C(=O)O)o1 | i | >57
CCOc1ccc(NC(N)=O)cc1 | i | >57
O=C(CSc1nnnn1C1CCCCC1)NCc1ccco1 | i | >57
O=C(CSc1nnc(CNC(=O)c2ccccc2F)o1)NCCc1ccccc1 | i | >57
O=S(=O)(c1ccccc1)N1C2CCC1CC(O)(c1cccnc1)C2 (centres undefined) | i | >57
O=C(NCCN1CCCC1)c1ccc(CS(=O)(=O)c2c(Cl)cccc2Cl)o1 | i | ·
COCc1nnc(NC(=O)C(C)C)s1 | i | >57
CCN(CC)Cc1c(C(=O)OC)nnn1-c1nonc1N | i | >57
CCC(c1nnnn1C(C)(C)CC)N(CCCO)Cc1cc2cc(C)cc(C)c2[nH]c1=O (centres undefined) | i | >57
O=C(Cn1ncc2c(=O)oc3ccccc3c21)N1CCCN(Cc2ccccc2F)C1 | i | ·
O=C(NCc1ccccc1)c1cccc(S(=O)(=O)N2CCOCC2)c1 | i | ·
Cc1cc(C)n2cc(CSc3nnc(-c4ccccc4)o3)nc2n1 | i | >57
CC(=O)c1ccc([N+](=O)[O-])cc1 | i | ·
Nc1nc(N)c2nn(-c3ccc(C(=O)O)cc3)nc2n1 | i | ·
CC(=O)c1cc(F)c(N2CCN(C(=O)Cc3ccccc3)CC2)cc1C | i | >57
CN(C)c1oc(-c2ccccc2)nc1C#N | i | ·
CC(C)(C)NCc1cccn1-c1sc2c(c1C#N)CCCC2 | i | ·
O=C(Nc1ccc2c(c1)Cc1ccccc1-2)c1ccco1 | i | 8.8*
Next entries:
SMILES | TsaE inh | PK Bst
O=C(COC(=O)C1CC(=O)N(c2ccccc2)C1)c1ccccc1 (centres undefined) | i | ·
O=c1[nH]cnc2scc(C3COc4ccccc4O3)c12 (centres undefined) | i | >57
COc1ccc2[nH]c(C(=O)O)c(CCC(=O)O)c2c1 | i | >57
O=C(CN1CCN(C(=O)c2cccc(F)c2)CC1)Nc1ccccc1F | i | >57
CCC(c1nnnn1Cc1cccs1)N1CCN(c2nc3ccccc3s2)CC1 (centres undefined) | i | >57
Cc1ccc(Nc2ncc3c(n2)CC(c2ccco2)CC3=O)c(C)c1 (centres undefined) | i | >57
COCc1cc(=O)n2c([nH]c3ccccc32)c1C#N | i | ·
O=C1C2C3C=CC(O3)C2C(=O)N1CC(O)c1ccccc1 (centres undefined) | i | >57
Cc1cc2n(n1)C(c1sccc1C)Nc1ccccc1-2 (centres undefined) | i | >11
CN1/C(=C\C(=O)COc2ccc3c(c2)OCO3)C(C)(C)c2ccccc21 | i | >57
Cc1cccc(C)c1NC(=O)Nc1ccc(S(N)(=O)=O)cc1 | i | ·
Cc1nc2ccc(F)cc2cc1C(=O)NCc1ccco1 | i | >57
O=C1CCCC2=C1C(c1cn(-c3ccccc3)nc1-c1cccs1)c1c([nH]c(=O)[nH]c1=O)N2 (centres undefined) | i | >57
S=C1N[C@H](c2ccccc2)N[C@H](c2ccccc2)S1 | i | ·
COc1cc(NC(=O)CCc2ccccc2)c(C(=O)O)cc1OC | i | ·
CN(CC(=O)NC1CCCCC1)S(=O)(=O)c1cccc2nsnc12 | i | >57
C=CCNS(=O)(=O)c1sccc1/C=N/O | i | ·
COC(=O)[C@@]1(Cc2ccccc2)[C@H]2c3cc(C(=O)N4CCCC4)n(Cc4ccc(O)c(OC)c4)c3C[C@H]2CN1C(=O)c1ccccc1 | i | ·
COc1ccc(OC)c(NC(=O)CN(c2ccc(C)cc2)S(=O)(=O)c2c(C)noc2C)c1 | i | >57
CCOC(=O)c1c(NC(=O)CNCC(O)CO)sc(C)c1C (centres undefined) | i | >57
CN1C(=O)c2ccc(NC(=O)C3CCCCC3)cc2C1=O | i | >57
COc1ccc(N2CCN(C(=O)Cn3nnc(-c4ccc(OC)c(OC)c4)n3)CC2)cc1 | i | >57
CCN1CCN(C(=O)Nc2ccc(Cc3ccc(NC(=O)N4CCN(CC)CC4)cc3)cc2)CC1 | i | ·
CN(C)c1ccc(C=NCC2(O)CCOC(C)(C)C2)cc1 (centres undefined) | · | >26
CC(C)N1C(=O)C2C(C(=O)NC3CCCCC3)C3C=CC2(O3)C1C(=O)NC1CCCCC1 (centres undefined) | i | >57

Entries listed so far that contain a COOH group (seven):
SMILES | TsaE inh | PK Bst
CCC(NC(=O)c1ccccc1NC(=O)c1ccco1)C(=O)O (centres undefined) | i | ·
O=C(O)c1ccc(N2CCCC2=O)cc1 | i | >57
O=C(O)CCCCC(=O)O | i | ·
Cc1ccc(C(=O)NCc2occc2C(=O)O)o1 | i | >57
Nc1nc(N)c2nn(-c3ccc(C(=O)O)cc3)nc2n1 | i | ·
COc1ccc2[nH]c(C(=O)O)c(CCC(=O)O)c2c1 | i | >57
COc1cc(NC(=O)CCc2ccccc2)c(C(=O)O)cc1OC | i | ·

New compounds follow:
SMILES | TsaE inh | PK Bst
C=CCOc1nc2c(c(=O)n(C)c(=O)n2C)n1Cc1ccccc1Cl | · | >26
C/C=C/COC(=O)c1[nH]c2c(c1C)C(=O)CC(c1ccc(N(C)C)cc1)C2 (centres undefined) | i | ·
CCCn1c(=O)c(C(=O)Nc2cnccn2)c(O)c2ccccc21 | i | >57
COc1cccc(C(=O)N2CCN(C(=O)c3cccs3)CC2)c1OC | i | >57
COc1ccccc1CNC(=O)C1CCN(Cc2nc(-c3cccc(Cl)c3)oc2C)CC1 | i | >57
COC(=O)c1ccc(C(NC(=O)OCc2ccccc2)/C(C)=C/[C@@H](C)C(=O)Nc2ccc(OC)cc2)cc1 (some centres undefined) | i | ·
CCOC(=O)c1sc(NC(=O)c2noc3c2CCCC3)c(C(=O)OCC)c1C | i | ·
CCOC(=O)CN1CC23C=CC(O2)C(C(=O)NC2CCCC2)C3C1=O (centres undefined) | i | ·
CCOc1cc(-c2noc(N)c2C(=O)OC)cc(OCC)c1OCC | i | >57
CC(=O)Oc1ccc(C)cc1N1C(=O)c2ccc(C(=O)O)cc2C1=O | i | ·
Cn1c(/N=C/c2cc(Cl)ccc2O)nc2ccccc21 | i | ·
O=C(CCNS(=O)(=O)c1cccc2nsnc12)NCc1cccs1 | i | ·
CCC(NC(=O)Nc1nnc(C(F)(F)F)s1)(C(F)(F)F)C(F)(F)F | · | >26
COc1ccc(C2=NOC(C(=O)NC(C)C)C2)cc1 (centres undefined) | i | >57
COc1cc(C2CC(=O)C=C(O)C2)cc(OC)c1OC (centres undefined) | i | ·
COC(=O)c1c(C(=O)OC)c2n(c1C)CCC2 | i | ·
COCCn1nnnc1CN1CCN2CCCC2C1 (centres undefined) | i | >57
COc1cccc(-c2cncnc2NCc2ccccc2)c1 | i | ·
Cc1ccc(Cl)cc1N1CCN(C(=O)C2CCCN(S(=O)(=O)c3cnc[nH]3)C2)CC1 (centres undefined) | i | ·
O=C(O)c1ccc(COCC(F)(F)F)cc1 | i | >57
O=C(CCNC(=O)Cn1cnc2ccccc2c1=O)NCCC1=CCCCC1 | i | >57
O=C(COc1ccccc1)N(Cc1cc2ccccc2[nH]c1=O)CC1CCCO1 (centres undefined) | i | >57
CC1(C)OC(=O)N(Cc2ccco2)C1(C)O (centres undefined) | i | >57
CCN1CCCC1CNc1ncnc2c1[nH]c1ccc(Cl)cc12 (centres undefined) | i | ·
COc1ccc(N(CC(=O)Nc2ccc(OC)c(Cl)c2)S(=O)(=O)c2c(C)noc2C)cc1 | i | >57

In another format: entries from further up.
Under each structure – TsaE inh	PK Bst
> O=C(CCNC(=O)Cn1cnc2ccccc2c1=O)NCCC1=CCCCC1
  i	>57
> CCOC(=O)CN1CC23C=CC(O2)C(C(=O)NC2CCCC2)C3C1=O (centres undefined)
  i	·
> Cc1ccc(Cl)cc1N1CCN(C(=O)C2CCCN(S(=O)(=O)c3cnc[nH]3)C2)CC1 (centres undefined)
  i	·
> Cn1c(/N=C/c2cc(Cl)ccc2O)nc2ccccc21
  i	·
> C/C=C/COC(=O)c1[nH]c2c(c1C)C(=O)CC(c1ccc(N(C)C)cc1)C2 (centres undefined)
  i	·
> CC(=O)Oc1ccc(C)cc1N1C(=O)c2ccc(C(=O)O)cc2C1=O
  i	·

The list goes on:
SMILES | TsaE inh | PK Bst
O=c1c[n+](CCCC[n+]2cc(=O)o[nH]2)[nH]o1 | i | ·
CCOC(=O)c1nc(-c2ccc3c(c2)OCO3)[nH]c1C | i | ·
O=C1CCCc2nc(N3CCc4ccccc43)ncc21 | i | ?
O=C(COC(=O)C12CC3CC(CC(O)(C3)C1)C2)Nc1ccccc1OC(F)F | i | ·
COc1ccccc1C1/C(=C(/O)c2ccc(OC(C)C)cc2)C(=O)C(=O)N1c1cc(C)on1 (centres undefined) | · | >26
CCc1cc2c(N[C@@H](C)C(=O)O)ncnc2s1 | i | >57
CCCn1c(-c2ccc(F)cc2)nc2c(NC3CC4CCC(C3)N4C)nc(C)nc21 (centres undefined) | i | ·
COCCCNC(=O)Cn1ncc2ccsc2c1=O | i | ·
Cc1csc(NC(=O)c2cccs2)n1 | i | ·
Cc1ccc2c(c1)nnn2C1CCN(S(=O)(=O)c2ccc(C(=O)NC3CCCC3)cc2)CC1 | i | >57
CCOC(=O)c1cc(=O)n2[nH]c(-c3ccc(C)cc3)cc2n1 | i | >57
CSc1nc(N)nc(SCC(=O)c2ccccc2)c1C#N | i | >57
CCOc1cc(S(=O)(=O)NCCc2cccc(C)c2)c(OCC)cc1-n1cnnn1 | i | >57
C=CCc1cccc2cc(C(=O)N3CCN(C(=O)c4ccco4)CC3)c(=O)oc12 | i | >57
Cc1ccc(C)c(NC(=O)CCN2CCOCC2)c1 | i | >57
CC=C(/C(=C/C)c1ccc(O)cc1)c1ccc(O)cc1 | i | ·
COc1ccc2cc(C(c3nnnn3CC3CCCO3)N3CCOCC3)c(=O)[nH]c2c1 (centres undefined) | i | >57
CCC(Sc1nc2c(cnn2-c2ccc(Cl)cc2)c(=O)[nH]1)C(=O)OC (centres undefined) | i | ·
O=C(COC(=O)c1cnccn1)c1ccc(OC(=O)c2ccccc2)cc1 | i | ·
COc1cccc(-n2c(Cc3cc(=O)[nH]c(=O)[nH]3)nnc2SCC(=O)Nc2ccccc2)c1 | i | ·
CCC(=O)c1ccc(OCC(O)CN2CCN(S(=O)(=O)N3CCCCC3)CC2)cc1 (centres undefined) | i | >57

Assay outcomes from PubChem.
